Source: PubChem (National Center for Advancing Translational Sciences (NCATS))
GLA inh pH 4.5: inhibitors of human alpha-galactosidase A at pH 4.5; 230,000 tested, under 10 active; P06280; purified enzyme, 4-MU-alpha-Gal fluorescence, pH 4.5; activity change, negative = inhibition, % at 105 µM; AID 1467; inconclusive = small, poorly fitted or top-dose-only inhibition, or a rising curve; inactive = flat fitted curve, though single readings scatter; no compound was filed as active;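 also: 0% = full activity with enzyme and -100% = basal without enzyme; dose as in the result columns while the protocol names 77 µM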
Target sequence (P06280 whole entry, looked up): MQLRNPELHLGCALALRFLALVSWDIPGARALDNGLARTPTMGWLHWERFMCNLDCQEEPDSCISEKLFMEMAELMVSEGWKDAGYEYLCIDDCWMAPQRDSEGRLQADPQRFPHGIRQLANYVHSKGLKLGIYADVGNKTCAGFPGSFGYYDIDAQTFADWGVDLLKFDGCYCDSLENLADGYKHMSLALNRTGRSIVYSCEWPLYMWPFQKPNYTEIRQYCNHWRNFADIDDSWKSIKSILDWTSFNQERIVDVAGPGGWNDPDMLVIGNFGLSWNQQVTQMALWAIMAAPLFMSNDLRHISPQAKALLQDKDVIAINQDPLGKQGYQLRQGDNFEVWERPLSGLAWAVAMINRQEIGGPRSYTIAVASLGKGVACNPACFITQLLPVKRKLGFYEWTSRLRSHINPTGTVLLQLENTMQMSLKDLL
Rango complex inh: Rango-importin beta binding inhibition. hit rate 0.031% among 340,000. Potency, µM (titrated, usually from 92.2 µM), inactives show top-dose inhibition of complex formation. Q14974. Rango CFP/YFP FRET sensor + importin beta, 45 min; active = rising FRET ratio curve, often small or poorly fitted; inconclusive = mostly compound fluorescence or quenching in the first reads; inactive = flat curves in all reads;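 also: potency is read from the fitted curve at half-maximal effect; 0% = DMSO wells and 100% = buffer wells lacking importin beta; nearly all actives have a fitted effect of over 15% in size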
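Inhibition scored from the CFP 486 nm/YFP 530 nm FRET ratio 45 min after adding 0.125 microM importin beta to 50 nM Rango biosensor preincubated 5 min with compound (room temperature, PBS with DTT, Tween-20, BSA). No-importin wells as positive control.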
Rango release inh: inhibition of RanGTP-driven Rango-importin beta dissociation. Potency, µM (titrated, usually from 46.1 µM), for the others: at the highest dose activity change, negative = inhibition. hit rate 0.071% among 340,000. O95149+P62826. AID 540253. Biochemical FRET Rango-importin beta, RanGTP-induced dissociation; active means falling FRET ratio curve, often poorly fitted, with flat reads before Ran was added; inconclusive means other falling curves, or compound fluorescence or quenching; inactive means flat or rising ratio curve;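 also: potency is read from the fitted curve at half-maximal effect; % of control where 0% means no effect; nearly all actives have a fitted effect of over 45% in size; -100% = wells without RanGTP and RCC1; the record marks most hits as doubtful in a second field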
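Recombinant Rango FRET biosensor (EYFP–snurportin 1 IBB–cerulean CFP10) at 0.1 uM premixed with 0.25 uM importin beta in PBS, 1 mM DTT, 0.02% Tween-20, 0.1% BSA. Compound added 5 min; RanGTP-RCC1 (0.6 uM Ran, 2 mM GTP, 0.2 uM RCC1) then triggers release, read at 45 min.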
miR-21 reporter: miR-21 reporter, rising signal; HeLa miR-21 FLuc reporter, luciferase, 48 h; Potency, µM (doses to about 38.3 µM), for inactives: at the top dose reporter change, positive = more light; 340,000 tested, under 10 active; active = well fitted rising curve with a large enough effect; inconclusive = small, poorly fitted or top-dose-only effect; inactive = no such curve, though single readings can be large or run the other way;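 also: % of control where 0% means no effect; miR-21 action dims this reporter so a rising signal means less miR-21 action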
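Compounds were titrated across several concentrations (up to approximately 40 uM) and incubated 48 hours with HeLa miR-21-FLuc reporter cells (miR-21 target sequence downstream of FLuc, endogenous miR-21). Readout was firefly luciferase luminescence after lytic detection reagent.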
* marks the source's active call; other numbers are inactive results; ? = inconclusive; nt = not tested or not shown.

SMILES	GLA inh pH 4.5	Rango complex inh	Rango release inh	miR-21 reporter
C=C(CC[C@@H](O)C(C)(C)O)[C@H]1CC[C@]2(C)[C@@H]1CCC1[C@@]3(C)CC[C@H](O)C(C)(C)C3CC[C@]12C (stereo partly specified)	nt	-4.7%	2%	nt
O=C(N/N=C/c1cccc(F)c1)c1csc2c1CCCC2	4	4.0%	2%	-50%
COCc1cc(=O)oc2cc(NS(=O)(=O)c3ccc(C)cc3)ccc12	?	?	?	-3%
Cc1ccc(S(=O)(=O)N/N=C/C(C)(C)CO)cc1	6	3.6%	24%	-2%
O=C(NCCc1cn2ccsc2n1)c1cccs1	8	2.0%	1%	-31%
CCN(CC)C(=O)Cn1cc(S(=O)(=O)CC(=O)Nc2cc(C)on2)c2ccccc21	nt	0.0%	16%	nt
CCCS(=O)(=O)NCc1ccc2c(c1)cc(C)n2C	-1	?	?	-7%
COC(=O)c1ccccc1OCCN1CCCCCC1	9	2.2%	-17%	1%
N=c1c(S(=O)(=O)c2ccc(Br)cc2)cc2c(=O)n3ccccc3nc2n1C1CCCC1	nt	-2.9%	22%	-9%
C=CCOc1ccc(/C=C/C(=O)OCC(=O)NC2CCCCCCC2)cc1	nt	1.3%	-4%	-3%
CC(C)c1ccccc1NC(=O)c1ccccc1NC(=O)C1CCCCC1	-1	8.6%	34%	-8%
C[C@H](NC(=O)OCc1ccccc1)C(=O)NNC(=O)[C@H](C)NC(=O)OCc1ccccc1	6	2.2%	5%	1%
CCOC(=O)C1CCC/C1=N\NC(=O)CN(c1cc(OC)ccc1OC)S(=O)(=O)c1ccccc1 (stereo unspecified)	nt	0.8%	-2%	-1%
Cc1ccc(Cn2c(=O)c3c(nc4n3CCCN4Cc3ccccc3)n(C)c2=O)cc1	-3	3.8%	2%	-1%
COCCCNC(=O)c1cccs1	1	0.1%	1%	-3%
CC(C)NC(=O)Cn1c(=O)c2c(ncn2Cc2ccccc2)n(Cc2ccccc2)c1=O	3	0.9%	10%	-8%
CCOC(=O)C1(Cc2ccccc2)CCCN(C(=O)c2cn[nH]c2)C1 (stereo unspecified)	nt	-5.5%	7%	-4%
CCC(C)c1ccccc1OCCCNC1CCCC1 (stereo unspecified)	nt	-0.1%	8%	13%
COc1ccc(C(=O)NCC(=O)N/N=C(C)\C=C\c2ccccc2)cc1OC	-20	4.3%	9%	-6%
CC(C)(NO)/C(=N\O)c1ccccc1	6	-0.2%	3%	-5%
O=C(COc1ccc2c(-c3ccccc3)cc(=O)oc2c1)NCCCN1CCOCC1	nt	0.5%	0%	-19%
CCCc1nc(SCC(=O)c2ccccc2)c2c(=O)n(C)c(=O)n(C)c2n1	-1	3.6%	-2%	-6%
O=C1NC(=O)C(c2cn(-c3ccccc3)nc2-c2ccc(F)cc2)N1 (stereo unspecified)	-2	8.6%	17%	-6%
COc1ccc(C(=O)O)cc1S(=O)(=O)N(CCc1ccccc1)Cc1ccccc1	0	2.1%	28%	-2%
CCOC(=O)[C@H]1[C@H]2COc3ccc(OC)cc3[C@@H]2N2C(=O)CN(CCc3c[nH]c4ccccc34)C(=O)[C@@]12C	nt	-0.5%	-13%	nt
O=C(NCc1cccnc1)c1ccc(=O)oc1	-1	0.2%	0%	-4%
CCC(=O)Nc1cccc(NC(=O)CSc2nc3c(c(=O)n(C)c(=O)n3C)n2C)c1	nt	4.7%	0%	1%
CCOC(=O)c1c(NCC(C)C)c2ccccc2[nH]c1=O	1	0.2%	2%	10%
Cc1ccc(S(=O)(=O)N2CCOC2CNC(=O)C(=O)NCCN2CCOCC2)cc1 (stereo unspecified)	nt	-0.6%	34%	-1%
Cc1ccccc1C(=O)N1CCN(c2ccc(NC(=O)CSc3ccc(Cl)cc3)cc2)CC1	-8	-2.3%	-1%	28%
CO/N=C(\CS(=O)(=O)Cc1ccc(OC)cc1)c1ccc(Cl)cc1	3	?	?	-3%
CCOC(=O)C1=C(C)NC2=C(C(=O)CCC2)C1c1cn(Cc2ccc(Cl)cc2Cl)nc1-c1ccccc1 (stereo unspecified)	8	-3.0%	12%	20%
CCN(CC)CCNC(=O)C(=O)Nc1cc2c3c(c1)CCC(=O)N3CCC2	nt	-3.2%	-6%	6%
Cc1cc(Cl)ccc1OCCCC(=O)NCCc1nnc2ccccn12	nt	-1.6%	-6%	-5%
Nc1ncnc2c1nc(Br)n2[C@@H]1O[C@@H]2COP(=O)(O)O[C@H]2[C@H]1O	nt	1.3%	29%	nt
Cc1noc(C)c1NC(=O)N(C)C[C@H]1Oc2ccc(NS(=O)(=O)c3cccs3)cc2C(=O)N([C@H](C)CO)C[C@@H]1C	nt	-1.8%	19%	nt
CCCCn1c(N)c(N(CCOC)C(=O)c2cccc(-n3cnnn3)c2)c(=O)[nH]c1=O	nt	-1.9%	18%	nt
Cc1cn([C@@H](CCCCNC(=O)OC(C)(C)C)C(=O)NCCCCCCCCCCC(=O)N2CCN(C(=O)OC(C)(C)C)CC2)nn1	nt	5.6%	5%	nt
COc1ccc(Cc2n[nH]c(=S)n2C)cc1Br	6	-1.9%	2%	10%
Cc1cc(=O)nc2c3ccccc3n(CC(=O)NCCCN3CCCCC3C)n12 (stereo unspecified)	nt	-1.8%	-8%	-1%
CCOc1ccc2oc(-c3ccccc3)c(C(=O)N3CCN(CCO)CC3)c2c1	-7	-1.1%	-5%	-7%
O=C(N/C(=C/c1ccco1)C(=O)N1CCCCC1)c1cccs1	5	1.5%	-7%	-8%
COc1ccc(-n2nc3c(c2NC(=O)C2CC2)CS(=O)C3)cc1 (stereo unspecified)	-9	1.2%	1%	-1%
O=C1[C@H]2CCC=C[C@H]2[C@H](c2cccc(Br)c2)N1Cc1ccccc1	-12	-1.9%	-18%	nt
Cc1c2cnn(CC(=O)Nc3c(F)c(F)cc(F)c3F)c(=O)c2c(C)n1Cc1ccccc1F	1	-4.6%	-7%	-4%
CSc1nc2c(c(=O)[nH]1)C(c1ccc(F)cc1)CC(=O)N2 (stereo unspecified)	3	?	?	0%
O=C(NCc1nnc(SCC(=O)N2CCCC2)o1)c1ccco1	7	-4.9%	2%	-5%
COc1ccc(OC)c(NC(=O)c2ccno2)c1	-11	0.3%	5%	-21%
CCOc1ccc(S(=O)(=O)N2CCN(C)CC2)cc1NC(=O)c1ccccc1F	nt	1.7%	-4%	7%
CCOc1ccc(S(=O)(=O)N2CCCC(C(=O)NCc3ccccn3)C2)cc1Cl (stereo unspecified)	nt	-2.6%	-3%	nt

Next records follow:
SMILES	GLA inh pH 4.5	Rango complex inh	Rango release inh	miR-21 reporter
Cc1cc(=O)oc2c(C)c(OC3CCCCC3=O)ccc12 (stereo unspecified)	nt	-2.3%	-7%	-26%
O=C(NCc1ccccc1F)c1cccc(S(=O)(=O)N2CCCCCC2)c1	nt	0.0%	1%	nt
Nc1nnc(SCC(=O)OCC(=O)Nc2ccccc2F)s1	-3	-5.6%	3%	-2%
Cc1nnc(SCCC#N)n(CCC#N)c1=O	-2	0.6%	19%	-9%
COc1ccc(-n2c(=S)[nH]c3sc(-c4ccccc4)cc3c2=O)c(OC)c1	1	2.8%	24%	0%
CC(C)(C)c1ccc(N2C(=O)CC(C/C=C/c3ccccc3)C2=O)cc1 (stereo unspecified)	0	3.1%	20%	1%
Cc1cc(=O)cc(C)n1-c1ccccc1Br	nt	19%	0%	-1%
Cc1nc2c(nnn2Cc2c(Cl)cccc2Cl)c(=O)[nH]1	nt	-3.0%	0%	-2%
Cc1cc(C)nc(NC(=O)c2cccs2)n1	-3	-0.8%	-12%	-13%
CCOc1cc(C2NC(=O)c3ccccc3O2)ccc1OC (stereo unspecified)	nt	-4.1%	6%	3%
COc1ccc(Cl)cc1NC(=O)C/C(C)=N/NC(=O)c1ccccc1[N+](=O)[O-]	nt	-1.3%	20%	-2%
CC(=O)N1CCc2ccc(S(=O)(=O)N3CC(C)OC(C)C3)cc21 (stereo unspecified)	-5	?	5%	0%
O=C(NCc1ccco1)/C(=C/c1cccnc1)NC(=O)c1cccc(Br)c1	3	-0.5%	-3%	-3%
O=c1ccc2ccc(OCCOc3cccc(Cl)c3)cc2o1	nt	0.1%	14%	-58%
N#Cc1ccc(OCC(=O)NNC(=S)NC(=O)C2CC2)cc1	nt	0.1%	-16%	nt
FC(F)(F)c1cccc(N2CCN(C(=S)NC3CCCC3)CC2)c1	-10	-0.7%	-2%	20%
CC(C)C(=O)N1CCN(c2ccc(NC(=O)c3ccc4c(c3)OCCO4)cc2Cl)CC1	-2	-2.4%	-3%	-1%
O=C(OCc1ccccc1)/C(=C/c1ccccc1Cl)NC(=O)c1ccco1	nt	0.2%	14%	6%
CN(Cc1nc(-c2cccnc2)no1)S(=O)(=O)c1ccccc1	8	-3.2%	24%	-17%
Cc1cc(C(=O)NCC2COc3ccccc3O2)c2ccccc2n1 (stereo unspecified)	-3	-4.5%	-21%	6%
COc1ccc(-c2nc(CN3CCC(C(=O)NC4CCCC4)CC3)c(C)o2)cc1OC	nt	-4.5%	4%	-1%
CN(C)c1ccc(/C=[N+](\[O-])C(C)(C)/C=N/O)cc1	-4	0.4%	0%	-6%
CCCCC(CCCCl)C(=O)Nc1ccccc1 (stereo unspecified)	-12	-3.4%	-5%	0%
Cc1ccc(S(=O)(=O)N2CCC(C(=O)OCC(=O)N3CCCC3=O)CC2)cc1C	nt	0.3%	6%	nt
CCOC(=O)c1[nH]c2ccc(OC)cc2c1NC(=O)CCN1CCC(C)CC1	-5	-1.7%	9%	-3%
CCc1cc2c(COC(=O)c3cc(S(=O)(=O)N4CCOCC4)ccc3F)cc(=O)oc2cc1O	nt	?	?	nt
COc1cccc(NC(=O)CSc2nccn2-c2cccc(OC)c2)c1	-17	-2.4%	0%	1%
COCCCN1CC(=O)N2C(c3cccc(OC)c3OC)c3[nH]c4ccccc4c3C[C@H]2C1=O (stereo partly specified)	nt	-1.1%	-2%	-7%
C=C[C@@H]1c2cc(C)ccc2N(S(=O)(=O)c2ccc(C)cc2)[C@H](c2ccccc2C(F)(F)F)C1(C#N)C#N	nt	?	-2%	nt
COc1ccc(N=Nc2nc(-c3ccccc3)c(-c3ccccc3)[nH]2)cc1	-4	8.5%	-5%	10%

Three structures already listed, arranged by number of heavy atoms, high to low.
SMILES	GLA inh pH 4.5	Rango complex inh	Rango release inh	miR-21 reporter
COCCCN1CC(=O)N2C(c3cccc(OC)c3OC)c3[nH]c4ccccc4c3C[C@H]2C1=O (stereo partly specified)	nt	-1.1%	-2%	-7%
COc1ccc(-c2nc(CN3CCC(C(=O)NC4CCCC4)CC3)c(C)o2)cc1OC	nt	-4.5%	4%	-1%
CCOC(=O)c1[nH]c2ccc(OC)cc2c1NC(=O)CCN1CCC(C)CC1	-5	-1.7%	9%	-3%

Further structures follow:
SMILES	GLA inh pH 4.5	Rango complex inh	Rango release inh	miR-21 reporter
COc1ccc(-c2cc(C(=O)Nc3cccc(O)c3)no2)cc1	nt	-1.1%	4%	20%
C[C@@H]1CN([C@@H](C)CO)C(=O)c2cc(NC(=O)Nc3ccccc3)ccc2O[C@H]1CN(C)C(=O)Nc1cccc2ccccc12	nt	-1.0%	1%	nt
Cc1ccc2c(CC(=O)Nc3nc(C)cs3)coc2c1	0	-0.7%	9%	-7%
O=C(Cn1ccc2ccccc2c1=O)N1CCN(Cc2ccc3c(c2)OCO3)CC1	2	0.3%	8%	-4%
Cc1nn2cc(-c3ccccc3)nc2s1	0	-1.0%	-10%	-24%
CC12CCC(C(=O)O)(c3nc(C#N)c(C#N)nc31)C2(C)C (stereo unspecified)	-23	-0.4%	-1%	0%
COc1cccc(C(=O)Oc2cc(C)[nH]c(=O)c2[N+](=O)[O-])c1OC	10	1.7%	9%	-3%
CC12CCCCN1CCCc1c2[nH]c2ccccc12 (stereo unspecified)	-3	0.3%	2%	-3%
Cc1nnc(NC(=O)c2ccc(S(=O)(=O)N3CCCCC3)cc2)s1	nt	-2.3%	-10%	nt

In the list so far, 2 have a nitro group on carbon:
SMILES	GLA inh pH 4.5	Rango complex inh	Rango release inh	miR-21 reporter
COc1ccc(Cl)cc1NC(=O)C/C(C)=N/NC(=O)c1ccccc1[N+](=O)[O-]	nt	-1.3%	20%	-2%
COc1cccc(C(=O)Oc2cc(C)[nH]c(=O)c2[N+](=O)[O-])c1OC	10	1.7%	9%	-3%

Only part of the results is shown. The share of hits here may be higher or lower than overall.
